Screening data as filed in PubChem.
YopH inh: YopH (Yersinia) phosphatase inhibition; fluorescence Ex485/Em525; inhibition, %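 (about 10 µM by stock and volumes)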; hit rate 0.16% among 140,000;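 active = inhibition of 50% or more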;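 also: controls were vehicle for no effect and minimum signal wells for full effect; inactives centre near -20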
Arbovirus inh: arbovirus infection inhibition; inhibition, % at 10 µM; arbovirus infection cell-based antiviral screen; AID 1251; hit rate 0.37% among 200,000;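 active = inhibition from about 30%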;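 also: bluetongue infection of BSR cells; cell survival read as ATP light after 72 h; 0% = infected wells without compound and 100% = uninfected wells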
Mtb growth: M. tuberculosis H37Rv growth inhibitors, H37Rv strain (AID 1626); M. tuberculosis H37Rv growth inhibition; higher % means a stronger effect; hit rate 0.95% among 220,000; inhibition, % at 10 µM; hits with a dose series show IC50 in µM;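 active = confirmed in a dose series; inconclusive = inhibition above 80% but not taken into the dose series; inactive = below 80% or under 30% at every dose of the series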;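 also: bacteria incubated seven days before Alamar blue readout; 0% = bacteria only wells and 100% = bacteria with antibiotic wells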
Mtb betalactam: beta-lactam sensitization of Mtb H37Rv | M. tuberculosis H37Rv growth with meropenem, percent inhibition; hits of this screen are not shown here | inhibition, % at 25 µM | hit rate 0.27% among 330,000;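 active = about 74% or more and at least 40 points above the plate without the antibiotic, then above 30% in a dose series; inconclusive = first-round hits that could not be retested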;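 also: growth measured after seven days incubation then overnight dye step; 0% = bacteria only wells and 100% = bacteria with antibiotic; twin plates without the antibiotic show which effects depend on it; some results filed as inactive read as strong as hits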
RecA splice inh: inhibitors of M. tuberculosis RecA intein splicing | cell-free RecA intein splicing, fluorescence | inhibition, %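 (about 9 µM by stock and volumes)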 | hit rate 0.75% among 290,000; in the data active = inhibition above about 30%; inconclusive = no clear call, values can overlap the other calls;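 also: 0% = vehicle wells and 100% = reference inhibitor control wells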
Target sequence (P9WHJ3 whole entry, looked up, canonical isoform): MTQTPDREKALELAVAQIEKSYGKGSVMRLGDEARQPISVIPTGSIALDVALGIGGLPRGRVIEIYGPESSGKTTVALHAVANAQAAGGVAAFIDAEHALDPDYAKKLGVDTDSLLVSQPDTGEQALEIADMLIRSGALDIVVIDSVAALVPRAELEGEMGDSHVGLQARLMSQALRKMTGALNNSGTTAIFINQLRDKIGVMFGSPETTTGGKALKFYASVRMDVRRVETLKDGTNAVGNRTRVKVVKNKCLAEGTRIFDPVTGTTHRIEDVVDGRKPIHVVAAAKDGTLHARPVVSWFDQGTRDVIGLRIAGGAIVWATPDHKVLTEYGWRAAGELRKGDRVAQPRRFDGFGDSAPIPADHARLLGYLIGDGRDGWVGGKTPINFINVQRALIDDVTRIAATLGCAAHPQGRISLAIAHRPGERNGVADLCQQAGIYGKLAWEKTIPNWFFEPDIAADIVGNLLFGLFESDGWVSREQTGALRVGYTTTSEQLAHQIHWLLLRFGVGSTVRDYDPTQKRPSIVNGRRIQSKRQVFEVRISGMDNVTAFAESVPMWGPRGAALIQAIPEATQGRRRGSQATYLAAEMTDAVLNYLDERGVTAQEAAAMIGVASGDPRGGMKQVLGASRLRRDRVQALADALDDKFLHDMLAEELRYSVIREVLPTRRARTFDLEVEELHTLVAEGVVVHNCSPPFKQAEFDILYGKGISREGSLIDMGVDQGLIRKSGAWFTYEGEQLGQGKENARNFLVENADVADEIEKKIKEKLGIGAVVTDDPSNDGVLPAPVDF
Arbovirus inh repeat: also measured in Arbovirus inh; calls as there; inhibition, %; measured here: 10K subset replicate screen; many hits read low in the repeat;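 first of two repeat runs on a subset; 0% = infected and 100% = uninfected wells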
* marks the source's active call; other numbers are inactive results; i = inactive; ? = inconclusive; . = no result given; & = joins results of further samples.

The first 16 compounds as a preview:
SMILES	YopH inh	Arbovirus inh	Mtb growth	Mtb betalactam	RecA splice inh	others
CN(CCc1ccccn1)C(=O)Nc1ccc(Cl)cc1	-10	-4	-1%	-2	6.3
Cc1cccc(NC(=O)Nc2ccc(C)c(C)c2)n1	8	1	-10%	0	-0.9
CC(=O)Nc1ccc(NC(=O)CCc2nc3sc4c(c3c(=O)[nH]2)CCCC4)cc1	.	.	.	2	-2.4
CC(=O)c1cccc(NC(=O)C(OC(=O)/C=C/c2ccc3c(c2)OCO3)c2ccccc2)c1 (stereo unspecified)	2	1	-16%	14	-1.4
COC(c1ccccc1)c1nnc(CCC(=O)NC2CCCCC2)o1 (stereo unspecified)	.	4	-4%	-1	-3.2
COc1ccc(Oc2ncnc3c2ncn3Cc2ccccc2)cc1	-21	3	3%	-7	-17
O=C(NNC(=O)C1CCCO1)c1ccc(F)cc1 (stereo unspecified)	-29	2	2%	-3	8.3
O=c1oc(-c2ccco2)nc2sc3c(c12)CCCCC3	.	14	-5%	.	4.5
COc1cc2ccccc2cc1C(=O)Nc1ccccc1N1CCN(S(C)(=O)=O)CC1	-50	3	69%	79	.
CC(NC(=O)c1ccc(NC2=NC3CS(=O)(=O)CC3S2)cc1)c1ccccc1 (stereo unspecified)	.	.	.	4	1.8
COC(=O)[C@H](CC(C)C)NC(=O)NCCCc1ccccc1	-24	-2	1%	23	1.2
O[C@H]1[C@H](O)[C@@H](O)CN2CC[C@H](O)[C@H]12	-49	-4	-2%	-2	-7.5
COCCCn1c(=O)c2sccc2n(Cc2ccc(C)cc2)c1=O	.	.	.	3	-2.4
Cc1cc(OCC(=O)NC2CCN(Cc3ccccc3)CC2)c2c(C)c(C)c(=O)oc2c1	.	.	.	0	0.3
CCCCCN(C(=O)NC(=O)Nc1ccc(C)cc1)S(=O)(=O)c1ccccc1	-12	11	2%	1	-2.1
O=C(/C=C/c1cccs1)N1CCN(c2ccccc2F)CC1	-30	3	9%	6	-1.4

This part in full (from the top)
SMILES	YopH inh	Arbovirus inh	Mtb growth	Mtb betalactam	RecA splice inh	others
CN(CCc1ccccn1)C(=O)Nc1ccc(Cl)cc1	-10	-4	-1%	-2	6.3
Cc1cccc(NC(=O)Nc2ccc(C)c(C)c2)n1	8	1	-10%	0	-0.9
CC(=O)Nc1ccc(NC(=O)CCc2nc3sc4c(c3c(=O)[nH]2)CCCC4)cc1	.	.	.	2	-2.4
CC(=O)c1cccc(NC(=O)C(OC(=O)/C=C/c2ccc3c(c2)OCO3)c2ccccc2)c1 (stereo unspecified)	2	1	-16%	14	-1.4
COC(c1ccccc1)c1nnc(CCC(=O)NC2CCCCC2)o1 (stereo unspecified)	.	4	-4%	-1	-3.2
COc1ccc(Oc2ncnc3c2ncn3Cc2ccccc2)cc1	-21	3	3%	-7	-17
O=C(NNC(=O)C1CCCO1)c1ccc(F)cc1 (stereo unspecified)	-29	2	2%	-3	8.3
O=c1oc(-c2ccco2)nc2sc3c(c12)CCCCC3	.	14	-5%	.	4.5
COc1cc2ccccc2cc1C(=O)Nc1ccccc1N1CCN(S(C)(=O)=O)CC1	-50	3	69%	79	.
CC(NC(=O)c1ccc(NC2=NC3CS(=O)(=O)CC3S2)cc1)c1ccccc1 (stereo unspecified)	.	.	.	4	1.8
COC(=O)[C@H](CC(C)C)NC(=O)NCCCc1ccccc1	-24	-2	1%	23	1.2
O[C@H]1[C@H](O)[C@@H](O)CN2CC[C@H](O)[C@H]12	-49	-4	-2%	-2	-7.5
COCCCn1c(=O)c2sccc2n(Cc2ccc(C)cc2)c1=O	.	.	.	3	-2.4
Cc1cc(OCC(=O)NC2CCN(Cc3ccccc3)CC2)c2c(C)c(C)c(=O)oc2c1	.	.	.	0	0.3
CCCCCN(C(=O)NC(=O)Nc1ccc(C)cc1)S(=O)(=O)c1ccccc1	-12	11	2%	1	-2.1
O=C(/C=C/c1cccs1)N1CCN(c2ccccc2F)CC1	-30	3	9%	6	-1.4
COC(=O)C1=C(C)NC(=O)/C1=C\c1cc(C)n(-c2c(C)cccc2C)c1C	-26	3	5%	.	-0.9
CCC1CCCCN1CCCNC(=O)C1CCCN(c2ncnc3c2nc2n3CCCCC2)C1 (stereo unspecified)	.	.	.	-9	-1.2
COc1cc(OC)cc(C(=O)NC(=S)N2CCCCCC2)c1	.	-5	?	76	1.0
COC(=O)c1c(-c2ccccc2)csc1N1C(=O)Nc2ccccc2N1O	.	36*	-2%	3	-3.6
CCCCCn1c(=N)n(CC(O)COc2ccccc2OC)c2ccccc21 (stereo unspecified)	-12	-22	7%&17%	8&13	7.4&2.3	Arbovirus inh repeat=-28
O=C(Nc1ccccc1)OCCOc1ccccc1	25	3	-2%	-4	2.4	Arbovirus inh repeat=5
COc1cc(C=O)ccc1OCc1ccc(Cl)nc1	.	3	-6%	1	-3.0
O=C(NC1CCCCCC1)C1CCC(CNS(=O)(=O)c2ccc(Br)s2)CC1 (stereo unspecified)	-25	-3	-7%	-2	0.1
CC(C)CCC1(CN2CCCC2=O)C(=O)NC(=O)NC1=O	-111	0	0%	-12	-2.1
O=C(N/N=C/C=C\c1ccccc1)c1cnccn1	.	0	-7%	0	-0.2
C=C1C(=O)O[C@H]2C[C@]3(C)C([C@@H](OC(=O)/C(C)=C/C)[C@H]12)[C@](C)(O)CC[C@H]3O (stereo partly specified)	.	.	.	4	-2.0
CC1CCCN(C(C(=O)Nc2ccc3c(c2)OCO3)c2ccccc2)C1 (stereo unspecified)	-46	-3	11%	3	1.3	Arbovirus inh repeat=-4
O=C(CN(CC1CCCO1)C(=O)CCC(=O)Nc1ccccn1)NCC1CCCO1 (stereo unspecified)	12	2	4%	-3	0.6
CN1CCN(NC(=O)Nc2cccc(Cl)c2Cl)CC1	.	-4	3%	-7	-3.6
O=C(C1CCN(S(=O)(=O)c2ccccc2)CC1)N1CCc2ccccc21	.	.	.	-3	1.1
COc1ccc(N2CC(C(=O)N[C@@H](C)C(=O)NCc3ccccc3OC)CC2=O)cc1 (stereo partly specified)	.	.	.	0	0.5
O=C(COc1cccc(NC(=O)c2cccc([N+](=O)[O-])c2)c1)c1ccc(F)cc1	-41	-31	5%	70	-2.2
O=C(NC(CO)Cc1ccc([N+](=O)[O-])cc1)C(Cl)Cl (stereo unspecified)	-7	6	?	99	-15
Cc1nnc(SCC2=C(C(=O)O)N3C(=O)C(NC(=O)c4cccc(F)c4F)C3SC2)s1 (stereo unspecified)	.	1	-5%	-5	-2.8
COc1cc2[nH]c(=O)n(-c3ccccc3)c(=O)c2cc1OC	4	3	12%	-11	-4.1
Cc1ccc(NC(=O)c2ccco2)c([N+](=O)[O-])c1	.	-7	8%	-2	4.2
CN(C(=O)Cn1cc(C#N)c2ccccc21)c1ccccc1	.	-1	7%	1	1.7
Cn1ncc(Br)c1C(=O)Nc1ccc(Br)cn1	-32	-17	-2%	?	-2.2
CCn1c(COc2ccc(=O)n(-c3ccccc3)n2)nnc1SCc1ccc(OC)cc1	-35	7	-9%	-15	1.7
Cc1ccc(F)cc1NC(=S)NCCc1ccccc1	-16	-2	0%	-5	0.2
Cc1ccc(C(=O)NNC(=O)CSc2nnc3c(n2)[nH]c2ccc(C)cc23)cc1	-38	-18	-2%	2	-2.2
COc1ccccc1C1=NNC(=NCc2ccccc2)SC1	.	-9	-3%	1	1.1
Cc1ccc(S(=O)(=O)/C(C#N)=C/c2c(N3CCN(C)CC3)nc3c(C)cccn3c2=O)cc1	-53	6	2%	-3	-46
COc1ccc(O)c(C2=Nc3ccccc3N=C(c3ccccc3)C2)c1	.	.	7%	-3	-6.6
Cc1ccc(Nc2nc(CSc3nnc(-c4cccnc4)n3-c3ccccc3C)cs2)cc1	-10	-3	4%	9	16
CCN(CC)CCCNc1cc(C(F)(F)F)c(C#N)c2nc3ccccc3n12	.	.	.	8	i
Nc1cc(=O)[nH]c(SCc2nnc(-c3ccccc3)o2)n1	-16	-6	-7%	51	1.5
COc1ccc(C(=O)OCCN2CCN(C3=NS(=O)(=O)c4ccccc43)CC2)cc1OC	.	.	.	2	-1.6
CCc1ccc[n+](-c2[nH]c(=O)sc2/C=N/N=C(\[O-])CCn2c3ccccc3c3ccccc32)c1	.	.	2%	-3	-1.3

(more compounds)
SMILES	YopH inh	Arbovirus inh	Mtb growth	Mtb betalactam	RecA splice inh	others
CCOC(=O)CSc1nc2ccsc2c(=O)n1C1CCN(C(=O)OCC)CC1	-48	0	7%	39	-1.4
CCOC(=O)N1CCN(S(=O)(=O)c2ccc(C(=O)NNc3nc4c(C)cccc4s3)cc2)CC1	-18	-31	-9%	6	4.5
Cc1ccc(C(C(=O)NCc2ccco2)N(C(=O)Cn2nnc3ccccc32)c2ccccc2)o1 (stereo unspecified)	-49	1	-2%	0	0.5
N#CCNC(=O)C1CC(=O)N(CCc2ccc(F)cc2)C1 (stereo unspecified)	.	.	.	-6	4.0
O=C(c1c[nH]c2ccccc12)N1CCN(Cc2ccccc2)CC1	.	8	1%	-1	-0.4
CN(C)CCCN(C(=O)c1ccc(C(=O)c2ccccc2)cc1)c1nc2ccc(F)cc2s1	.	.	.	-2	-0.3
CCOC(=O)Cc1csc(NC(=O)c2cc(C)on2)n1	.	.	.	-1	-1.9
CN(Cc1cccc(F)c1)C(=O)c1ccc(S(=O)(=O)C(F)F)cc1	-39	-5	-2%	4	4.6
CN(C(=O)CSc1ncc(C(F)(F)F)cc1Cl)c1c(N)n(Cc2ccccc2)c(=O)[nH]c1=O	.	5	-2%	-8	-0.1
O=C(CSCc1ccc(Cl)cc1)NCc1ccccn1	-27	-4	-1%	-3	1.2
CC(C)(C)OC(=O)NC(Cc1ccccc1)C(=O)N1CCCC1C(=O)O (stereo unspecified)	.	.	.	3	1.9
Cc1nc(NC(=O)c2ccc(Cl)cc2)nc2cc3c(cc12)OCO3	-25	-5	1%	1	-1.8
Cc1cccc(C(C)C)c1NC(=O)C1CCN(S(=O)(=O)c2ccccc2)CC1	.	.	.	-1	2.8
Cc1cccc(CC(=O)c2c[nH]c3ccccc23)c1	.	.	4%	-2	1.0
CC(C)CCn1cnc2c1c(=O)n(CC(=O)NC(N)=O)c(=O)n2Cc1ccccc1	.	.	.	5	-3.0
Cc1ccc(-c2cc(-c3ccccc3)cc(-c3ccccc3)[n+]2-c2ccccc2C(=O)O)cc1	.	.	.	100	-1.8
CC(=O)c1c(C)[nH]c(C(=O)OC2CCCCC2=O)c1C (stereo unspecified)	-25	1	-2%	0	0.5
CNCCCCOc1ccccc1Cc1ccccc1	.	-18	-5%&4%	-8	-0.7
O=C1NC2(CCCCCC2)C(=O)N1Cc1ccccc1F	.	.	.	-3	1.5
Cc1ccc(CSc2nnc(SCC(=O)N/N=C/c3ccccc3OCC(=O)O)s2)cc1	.	.	11%	37	0.3
CCOc1ccc2nc(NC(=O)c3ccc(OC)c(S(=O)(=O)N4CCOCC4)c3)sc2c1	8	-16	0%	-1	3.2
CS(=O)(=O)N(CC(=O)N1CCN(c2ccc(F)cc2)CC1)c1cccc(Cl)c1	-16	1	-8%	-12	0.9
CC/C(=N\NC(=O)c1ccccc1Cl)c1c(O)n(C2CCCCC2)c(=O)[nH]c1=O	.	.	.	-1	-0.7
Cc1ccc2c(c1)nnn2C1CCN(C(=O)c2ccccc2F)CC1	.	3	-3%	2	3.2
Fc1ccc(NC(=S)N2CCOCC2)cc1Cl	.	3	4%	-1	-0.8
CC(=O)Nc1ccc(S(=O)(=O)N2CC(=O)NC(=O)C2)cc1	.	.	.	6	-3.1
CCCCCOC(=O)c1ccc(NC(=O)c2cccc(NC(=O)c3ccccc3C(=O)O)c2)cc1	.	.	.	-1	6.3
CC(NC(=O)c1nn(C)c(=O)c2ccccc12)c1ccccc1 (stereo unspecified)	11	4	-1%	-30	.
O=C1CCC/C1=c1\s/c(=C\c2cccnc2)c(=O)n1-c1ccccc1	-16	5	-4%	86	-2.7	Arbovirus inh repeat=2
CC1(C)CC(=O)C2=C(C1)NC(Nc1nc3ccccc3o1)=NC21CCCCC1	-52	-5	-7%	-1	-4.1
COc1ccc(Cc2nnc(SCC(=O)Nc3ccc(N4CCOCC4)cc3)o2)cc1	.	.	.	7	-3.3
CCOc1ccc2nc(NC(=O)CN3CCN(CC)CC3)sc2c1	.	.	.	7	-3.1
Cc1c(NC(=O)/C(C#N)=C/c2c(Oc3ccccc3)nc3ccccn3c2=O)c(=O)n(-c2ccccc2)n1C	-31	-6	0%	-4	2.2
CC(=O)NCCc1nc2cc(NC(=O)c3cccs3)ccc2n1C	.	6	0%	3	-1.0

Two successive records out of the list so far:
SMILES	YopH inh	Arbovirus inh	Mtb growth	Mtb betalactam	RecA splice inh	others
CCOc1ccc2nc(NC(=O)CN3CCN(CC)CC3)sc2c1	.	.	.	7	-3.1
Cc1c(NC(=O)/C(C#N)=C/c2c(Oc3ccccc3)nc3ccccn3c2=O)c(=O)n(-c2ccccc2)n1C	-31	-6	0%	-4	2.2

An excerpt; count on the stated rates, not on these rows.
